FGF22 binding = shifts melting point of recombinant human FGF22; recombinant FGF22 thermal shift, SYPRO orange fluorescence; percent of sucrose octasulfate shift, DMSO zero; calls only at 9.99 µM; hit rate 1.5% among 340,000;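 active = melting point raised past a set limit in the mean and every replicate; three in four hits are not shown here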
Target sequence (Q9HCT0 whole entry, looked up): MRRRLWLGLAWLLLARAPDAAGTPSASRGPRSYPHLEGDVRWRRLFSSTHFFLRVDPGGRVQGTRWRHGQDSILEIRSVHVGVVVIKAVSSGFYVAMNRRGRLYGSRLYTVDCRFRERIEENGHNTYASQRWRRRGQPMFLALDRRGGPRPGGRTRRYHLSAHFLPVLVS
rRNA inh HTS = inhibits bacterial ribosomal RNA function over humanized ribosomes; E. coli WT GFP vs humanized-ribosome RFP mutants, fluorescence, 24 h; hits give low values; DMSO median 0, no signal -100; GFP signal change (wild-type ribosome), % (no concentration beside the values); hit rate 1.6% among 350,000; AID 720706;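 active = significant combined selectivity score with lowered wild-type GFP, culture density cut under 30%, mutant RFP and density less affected; inactive = any of these conditions unmet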; also: one replicate is shown; some compounds called inactive have numbers as strong as hits
MLL AF4-AF9 inh = inhibitors of human MLL-AF4/AF9 interaction; P42568; AlphaScreen, biotin-AF4 peptide binding to FLAG-AF9; inhibition, % at 10 µM; hit rate 0.47% among 350,000;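 active = every replicate reaching a set inhibition limit, whatever the replicate mean, cut at about 25% in these data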;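 also: 0% = plate neutral control median and 100% = total signal loss; the record names both 10 and 1 µM as test concentration; the first replicate is given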
Target sequence (P42568 whole entry, looked up): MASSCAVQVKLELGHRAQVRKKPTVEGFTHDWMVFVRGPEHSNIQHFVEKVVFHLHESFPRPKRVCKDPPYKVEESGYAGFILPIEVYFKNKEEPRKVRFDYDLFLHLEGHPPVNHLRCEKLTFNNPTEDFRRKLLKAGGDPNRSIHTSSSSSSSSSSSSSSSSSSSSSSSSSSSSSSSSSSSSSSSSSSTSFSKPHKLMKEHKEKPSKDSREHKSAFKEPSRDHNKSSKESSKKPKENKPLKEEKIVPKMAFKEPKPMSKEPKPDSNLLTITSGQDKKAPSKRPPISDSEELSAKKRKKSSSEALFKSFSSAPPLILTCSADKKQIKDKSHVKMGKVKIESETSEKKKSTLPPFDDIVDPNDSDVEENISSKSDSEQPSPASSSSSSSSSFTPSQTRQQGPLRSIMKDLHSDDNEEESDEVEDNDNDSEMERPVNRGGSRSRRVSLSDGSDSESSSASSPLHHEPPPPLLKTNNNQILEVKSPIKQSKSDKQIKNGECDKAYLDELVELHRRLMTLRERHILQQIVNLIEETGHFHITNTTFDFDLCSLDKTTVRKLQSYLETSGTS
rRNA inh HTS OD600 = also measured in rRNA inh HTS; calls as there; OD600 change, %; measured here: OD600 growth;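 optical density of the mix in the first replicate; 0 = DMSO median and -100 = no signal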
rRNA inh HTS RFP = further read-out of rRNA inh HTS, marked with its call; RFP signal change, %; measured here: RFP humanized mutant strains;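 first replicate; 0 = DMSO median and -100 = no signal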
* marks the source's active call; other numbers are inactive results; i = inactive; nt = not tested or not shown; & = joins results of further samples. An excerpt. The share of hits here may be higher or lower than overall.

SMILES | FGF22 binding | rRNA inh HTS | rRNA inh HTS OD600 | rRNA inh HTS RFP | MLL AF4-AF9 inh
COc1ccc(CN(C)C[C@@H]2Oc3ccc(N(C)C)cc3CC(=O)N([C@@H](C)CO)C[C@H]2C)cc1 | i | 3 | 7 | -0.5 | 13
C[C@H](CO)N1C[C@H](C)[C@H](CN(C)C(=O)c2ccccn2)Oc2cc(C#CC3CC3)ccc2S1(=O)=O | i | 0 | 0 | 1.4 | -0.3
COc1ccc(CN(C)C[C@@H]2Oc3c(NS(=O)(=O)c4cn(C)cn4)cccc3C(=O)N([C@@H](C)CO)C[C@H]2C)cc1 | i | 5 | 6 | -3.4 | 0.3
COCCNC(=O)C[C@@H]1C[C@H]2c3cc(NC(=O)Nc4ccc(OC)cc4)ccc3O[C@H]2[C@@H](CO)O1 | i | 2 | 2 | -1.8 | -9.5
C[C@H](CO)N1C[C@H](C)[C@H](CN(C)C)Oc2c(NC(=O)Nc3ccc(C(F)(F)F)cc3)cccc2C1=O | i | 1 | -2 | 3.1 | 1.7
C[C@@H]1CN([C@H](C)CO)C(=O)c2c(c3ccccc3n2C)-c2ccccc2CO[C@H]1CN(C)C(=O)c1ccc(F)cc1 | i | 0 | -1 | 4.3 | 1.0
C[C@@H]1CCCCO[C@H](CN(C)C(=O)Cc2ccccc2)[C@@H](C)CN([C@@H](C)CO)C(=O)c2cc(NC(=O)Nc3ccc4c(c3)OCO4)ccc2O1 | i | -1 | 9 | -4.2 | 5.8
CN(C(=O)c1cccc(NC(=O)Cc2ccc(NC(=O)C3CCN(C(=O)C4CCCCC4)CC3)cc2)c1)C1CC1 | i | 0 | 8 | -1.3 | -6.9
COCC(=O)Nc1ccc2c(c1)OC[C@@H](C)N(C(=O)c1cnccn1)C[C@@H](C)[C@H](OC)CN(C)C2=O | i | 3 | 7 | 1.0 | -0.4
O=C(c1ccncc1)N1C[C@H]2[C@@H](c3ccccc31)[C@@H](CO)N2Cc1ccc(F)cc1 | i | 0 | 2 | -2.6 | 0.2
COC(=O)[C@@]1(C)[C@H]2C(=O)N(Cc3ccccc3)C(=O)[C@H]2[C@H]2CN=C(SCc3ccc(C)cc3)N21 | i | 6 | 3 | 3.4 | 0.7
OC(c1ccc(Cl)c(F)c1)c1ncc(-c2ccccc2Cl)[nH]1 (stereo not given) | i | -62 | -77 | -25 | 4.6
O=S(=O)(Nc1ccc(-c2ccccc2)cc1)c1ccccc1 | i | 0 | 2 | -2.4 | -0.2
C[C@@H]1CN([C@H](C)CO)C(=O)c2cccc(NS(C)(=O)=O)c2O[C@@H]1CN(C)Cc1ccc(Oc2ccccc2)cc1 | i | -1 | -5 | 0.6 | 0.5
C[C@@H]1CN([C@@H](C)CO)C(=O)c2cc(NC(=O)Cn3cnnn3)ccc2O[C@H]1CN(C)C(=O)Nc1ccc(F)cc1 | i | 3 | 4 | -0.3 | -1.5
c1ccc2occc2c1 | i | 4 | 12 | -5.3 | -2.2
CC(C)C#Cc1cnc2c(c1)C(=O)N([C@@H](C)CO)C[C@H](C)[C@H](CN(C)C(=O)Nc1cc(F)ccc1F)O2 | i | 0 | -6 | -1.7 | -0.5
CC1CCN(C(=O)c2ncn3c2C(=O)N[C@H](C)C3)CC1 | i | 11 | 2 | -1.2 | -0.8
O=C(C[C@H]1CC[C@@H](NC(=O)C2CCC2)[C@H](CO)O1)Nc1nccs1 | i | 1 | 4 | -2.8 | -2.4
O=C(C1CCCCC1)N1CCC(c2nc3c(nnn3Cc3ccccc3Cl)c(=O)[nH]2)CC1 | i | -8 | -11 | 5.4 | -4.7
CCCCCC(=O)N1C[C@@H](n2cc(C3CC3)nn2)[C@H](O)C[C@@H]1c1ccc(OC)cc1 | i | -2 | 4 | 3.4 | -0.9
C[C@H](CO)N1C[C@H](C)[C@H](CN(C)C(=O)Nc2ccc(F)cc2)Oc2ccc(NS(=O)(=O)c3cn(C)cn3)cc2CC1=O | i | 0 | 3 | 1.2 | -1.6
COc1ccc2c3c([nH]c2c1)[C@H](CO)N(C(C)=O)CC31CN(S(=O)(=O)c2cccs2)C1 | i | -6 | -11 | -4.0 | 0.1
O=C(Nc1ccc2c(c1)OCO2)c1cc(C2CCCCN2S(=O)(=O)c2ccccc2)on1 (stereo not given) | i | -5 | -1 | 4.6 | 0.2
COc1ccc2c3c(n(C)c2c1)[C@H](CO)N(C(=O)c1ccccc1)CC31CCN(CC2CC2)CC1 | i | 3 | 3 | -4.3 | -0.8
COc1ccc(C(=O)N2CCCC2(C)C(=O)NCC(C)C)cc1C(F)(F)F (stereo not given) | i | 11 | 19 | -0.6 | -11
COCCNC(=O)C[C@@H]1C=C[C@@H](NC(=O)NC2CCCC2)[C@@H](CO)O1 | i | 7 | 3 | -0.1 | -9.6
O=C(Nc1ccc2c(c1)OCCO2)C(C1CC1)n1c(=O)c(-c2cc3ccccc3[nH]2)nc2ccccc21 (stereo not given) | i | 8 | 3 | 2.2 | -12
COCCNC(=O)C[C@@H]1CC[C@@H]2[C@H](COC[C@@H](O)CN2C(=O)Nc2ccccc2OC)O1 | i | 1 | 2 | -3.5 | -3.5
CCNC(=O)C[C@H]1CC[C@@H]2[C@H](COc3ccc(NC(=O)Nc4ccccc4C)cc3C(=O)N2C)O1 | i | 0 | -7 | -1.1 | 0.7
CC(C)NC(=O)Nc1ccc2c(c1)CC(=O)N([C@H](C)CO)C[C@H](C)[C@@H](CN(C)C(=O)Nc1ccc3c(c1)OCO3)O2 | i | 4 | 1 | 2.2 | 1.8
O=C(C[C@H]1C[C@H](C(=O)N2CCOCC2)[C@@]2(CCC3CCCC3)c3[nH]c4ccc(Cl)cc4c3CCN2C1=O)NCc1ccco1 | i | 26 | 21 | 4.8 | 0.9
CCOC1=C2[C@@H](CN(S(=O)(=O)c3ccc(C)cc3)[C@H]2c2cccc3ccccc23)[C@H]2C(=O)N(C)C(=O)[C@H]2C1 | nt | 2 | -18 | -8.5 | 2.0
CO[C@H]1CN(C)C(=O)c2ccc(NC(=O)C3CC3)cc2OC[C@H](C)N(C(=O)c2ccccc2)C[C@H]1C | i | -1 | 3 | -1.0 | 1.4
O=C(NCc1ccccc1F)[C@H]1[C@H](CO)[C@H]2Cn3c(cccc3=O)[C@H]2N1C(=O)CC1CC1 | i | 2 | 3 | 0.0 | 0.5
C[C@H]1CN([C@@H](C)CO)C(=O)c2cc(C#CC3(O)CCCC3)cnc2O[C@@H]1CN(C)C(=O)CC1CC1 | i | -3 | -1 | 1.7 | -2.4
Cc1nc2ccccn2c(=O)c1NC(=O)c1ccc(Br)o1 | i | 14 | 8 | 0.4 | -0.4
Cc1noc(C)c1NC(=O)N(C)C[C@@H]1Oc2ccc(NS(C)(=O)=O)cc2C(=O)N([C@@H](C)CO)C[C@H]1C | i | 2 | -1 | -1.1 | -1.4
CC(=O)N1[C@@H]2Cn3c(ccc(-c4ccccc4F)c3=O)[C@H]1[C@@H](C(=O)NC1CCC1)[C@@H]2CO | i | -3 | -6 | -2.8 | -1.8
Cc1ccc2nc(C3CCCCC3)c(Cc3ccccc3C(F)(F)F)n2c1 | i | -60 | -82 | -16 | 6.3
CNC[C@@H]1Oc2ccc(NS(=O)(=O)c3ccc(Cl)cc3)cc2C(=O)N([C@H](C)CO)C[C@H]1C | i | 5 | 6 | 0.4 | -3.8
O=C(C[C@@H]1C[C@H]2c3cc(NC(=O)c4cccnc4)ccc3O[C@H]2[C@H](CO)O1)NCc1ccncc1 | i | 1 | 5 | -4.3 | -1.4
CN1CCN(C(=O)C[C@@H]2C[C@H]3c4cc(NC(=O)Nc5ccc(C(F)(F)F)cc5)ccc4O[C@H]3[C@H](CO)O2)CC1 | i | 1 | 3 | 0.1 | 8.2
COc1ccc(NC(=O)N2CCCCN3[C@H](CO)[C@@H](c4ccc(C#CCC(C)C)cc4)[C@@H]3C2)cc1 | i | -12 | -15 | 21 | -9.2
COc1ccccc1-c1ccc([C@@H]2[C@H]3CN(S(=O)(=O)c4cn(C)cn4)CCCCN3[C@H]2CO)cc1 | i | 1 | -17 | 12 | 2.9
Cc1ccccc1S(=O)(=O)N(C)C[C@@H]1OCc2cn(nn2)CCCC(=O)N([C@@H](C)CO)C[C@H]1C | i | 1&26 | 5&16 | -0.3&6.6 | 2.0&1.6&-0.6
O=C(C[C@@H]1C=C[C@H](NC(=O)Nc2ccccc2F)[C@H](CO)O1)NCc1ccc(F)cc1 | i | -1 | 5 | 0.9 | -0.1
O=C(C[C@H]1CC[C@@H](NC(=O)C2CC2)[C@H](CO)O1)NCc1ccccc1Cl | i | -1 | -1 | -2.9 | 1.7
CO[C@@H]1CN(C)C(=O)c2cc(NC(=O)C3CC3)ccc2OC[C@H](C)N(C(=O)c2cnccn2)C[C@@H]1C | i | -2 | -4 | -1.2 | 7.6
C[C@H](CO)N1C[C@H](C)[C@@H](CN(C)C(=O)Nc2ccccc2)Oc2ccc(NC(=O)CCC(F)(F)F)cc2CC1=O | i | 3 | 7 | -1.7 | -3.9
C[C@H]1CN([C@@H](C)CO)C(=O)c2cc(NS(C)(=O)=O)ccc2O[C@@H]1CN(C)C | i | 1 | 0 | -2.3 | -4.0
CCCN1C[C@H](C)[C@H](OC)CN(C)C(=O)c2ccc(NC(=O)c3cnccn3)cc2OC[C@@H]1C | i | -1 | -6 | -3.0 | -3.2
CO[C@H]1CN(C)C(=O)c2cc(NC(=O)C3CCCC3)ccc2OC[C@H](C)N(CC2CC2)C[C@H]1C | i | 2 | 8 | -1.2 | 0.6
O=C(C[C@H]1C=C[C@@H](NC(=O)Nc2ccc(C(F)(F)F)cc2)[C@@H](CO)O1)NCCN1CCCC1 | i | -5 | -9 | 3.4 | 5.8
CCCNC(=O)N1C[C@@H](C)[C@@H](OC)CN(C)C(=O)c2cc(NS(=O)(=O)CC)ccc2OC[C@H]1C | i | 3 | 7 | -2.3 | -2.3
C[C@@H]1CN([C@H](C)CO)S(=O)(=O)c2ccc(C3=CCCC3)cc2O[C@@H]1CN(C)C(=O)c1ccccc1 | i | -6 | -23 | 4.4 | 1.5
O=C(Nc1cccc(Cl)c1)N[C@@H]1CC[C@H](CCNC(=O)C2CCCC2)O[C@H]1CO | i | -3 | -3 | 2.9 | -1.1
CO[C@@H]1CN(C)C(=O)c2ccc(NC(=O)c3ccc(F)cc3)cc2OC[C@H](C)N(C(=O)c2ccc(F)cc2)C[C@@H]1C | i | -9 | -3 | 0.7 | 1.0
Cc1noc(C)c1NC(=O)N(C)C[C@@H]1OCCCC[C@@H](C)Oc2ccc(NS(=O)(=O)c3c(C)noc3C)cc2C(=O)N([C@H](C)CO)C[C@@H]1C | i | 4 | 9 | -0.4 | 2.1
O=C(C[C@H]1CC[C@H]2[C@@H](COC[C@@H](O)CN2Cc2cccc(C(F)(F)F)c2)O1)NCc1ccccc1 | i | -8 | -14 | -0.1 | 0.3

Next section, overlapping the part above by two compounds.
SMILES | FGF22 binding | rRNA inh HTS | rRNA inh HTS OD600 | rRNA inh HTS RFP | MLL AF4-AF9 inh
Cc1noc(C)c1NC(=O)N(C)C[C@@H]1OCCCC[C@@H](C)Oc2ccc(NS(=O)(=O)c3c(C)noc3C)cc2C(=O)N([C@H](C)CO)C[C@@H]1C | i | 4 | 9 | -0.4 | 2.1
O=C(C[C@H]1CC[C@H]2[C@@H](COC[C@@H](O)CN2Cc2cccc(C(F)(F)F)c2)O1)NCc1ccccc1 | i | -8 | -14 | -0.1 | 0.3
CC(=O)N(C)C[C@@H]1Oc2cc(C#Cc3ccncc3)ccc2S(=O)(=O)N([C@H](C)CO)C[C@H]1C | i | -2 | -7 | 1.9 | -3.8
CCOC(=O)C1=C(c2ccccc2)N=c2sc(=Cc3cc(OC)c(OC)c(OC)c3)c(=O)n2C1c1cccs1 (stereo not given) | i | 2 | 6 | 0.6 | 3.0
COc1ccc(NC(=O)Nc2ccc3c(c2)C(=O)N([C@@H](C)CO)C[C@H](C)[C@@H](CN(C)S(=O)(=O)c2ccc(C)cc2)O3)cc1 | i | -1 | 7 | -0.5 | 2.7
COCC(=O)N(C)C[C@H]1Oc2ncc(C#Cc3ccccc3OC)cc2C(=O)N([C@H](C)CO)C[C@H]1C | i | 2 | 5 | -2.0 | -4.1

An excerpt from above in order of length of the SMILES, low to high.
SMILES | FGF22 binding | rRNA inh HTS | rRNA inh HTS OD600 | rRNA inh HTS RFP | MLL AF4-AF9 inh
CCOC(=O)C1=C(c2ccccc2)N=c2sc(=Cc3cc(OC)c(OC)c(OC)c3)c(=O)n2C1c1cccs1 (stereo not given) | i | 2 | 6 | 0.6 | 3.0
CC(=O)N(C)C[C@@H]1Oc2cc(C#Cc3ccncc3)ccc2S(=O)(=O)N([C@H](C)CO)C[C@H]1C | i | -2 | -7 | 1.9 | -3.8
O=C(C[C@H]1CC[C@H]2[C@@H](COC[C@@H](O)CN2Cc2cccc(C(F)(F)F)c2)O1)NCc1ccccc1 | i | -8 | -14 | -0.1 | 0.3
CO[C@@H]1CN(C)C(=O)c2ccc(NC(=O)c3ccc(F)cc3)cc2OC[C@H](C)N(C(=O)c2ccc(F)cc2)C[C@@H]1C | i | -9 | -3 | 0.7 | 1.0
Cc1noc(C)c1NC(=O)N(C)C[C@@H]1OCCCC[C@@H](C)Oc2ccc(NS(=O)(=O)c3c(C)noc3C)cc2C(=O)N([C@H](C)CO)C[C@@H]1C | i | 4 | 9 | -0.4 | 2.1
